Screens: PubChem BioAssay, National Center for Advancing Translational Sciences (NCATS)
ClpP mod: qHTS Assay for Activators of ClpP; ATP-dependent Clp protease proteolytic subunit (Bacillus subtilis (strain 168)), P80244; purified B. subtilis ClpP, FRET peptide cleavage, 20 min; Potency, µM (series often up to 57.5 µM), without a hit: at the top dose activity change, negative = active; 340,000 compounds, 1.9% hits; AID 651965, 2013; active = well fitted falling curve with a large enough effect; inconclusive = small, poorly fitted or top-dose-only effect; inactive = no such curve, though single readings can be large or run the other way; note: the source files actives as falling curves though it sought activators and does not explain the sign; nearly all actives have a fitted effect of over 65% in size; many hits overshoot -100%
Target sequence (P80244 whole entry, looked up): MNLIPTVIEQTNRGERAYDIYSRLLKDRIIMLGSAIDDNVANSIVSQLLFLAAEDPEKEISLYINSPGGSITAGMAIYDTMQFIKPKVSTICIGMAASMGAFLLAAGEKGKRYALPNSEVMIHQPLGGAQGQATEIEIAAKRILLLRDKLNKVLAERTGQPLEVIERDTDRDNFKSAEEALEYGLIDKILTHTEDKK
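Purified B. subtilis ClpP, 10 microg/mL final in Tris/HCl pH8 with KCl, BSA, glycerol and Tween-20, cleaved an Abz/nitrotyrosine-quenched decapeptide. Fluorescence (ex 320, em 430) was read at 0 and 20 min at room temperature. Delta was normalized to 5.8 microM ADEP and DMSO/no-enzyme controls.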
Starred values were filed as active, the others as inactive; ? = inconclusive. Potency is the fitted concentration of half-maximal effect.

SMILES	ClpP mod
COC(=O)C1CCN(C(c2ccccc2)c2sc3nc(-c4ccco4)nn3c2O)CC1 (stereo unspecified)	-1.9%
CCOC(=O)c1c(-c2ccccc2)csc1NC(=O)c1nc(S(=O)(=O)CC)ncc1Cl	-0.9%
Cc1ccc(OCC(=O)Nc2ccc3nc(SCC(=O)N4CCCC4)sc3c2)cc1	0.3%
COc1cccc(N2CCN(C(=O)c3ccc(CS(=O)c4cccc(Cl)c4)o3)CC2)c1 (stereo unspecified)	-2.0%
COc1cccc(C(=O)N2CCC(C(=O)Nc3cccc(Cl)c3)CC2)c1	1.6%
CCOC(=O)c1cccc(NC(=O)Cn2nc3c(cc2=O)CCCC3)c1	-1.9%
CC(=O)c1ccccc1NS(=O)(=O)c1cc2c(cc1C)NC(=O)CO2	-0.1%
CN(C)c1ccc(C(CNC(=O)c2ccccc2F)N2CCc3ccccc32)cc1 (stereo unspecified)	0.5%
CCS(=O)(=O)N1CCc2cc(C(=O)N3CCN(c4cccc(C(F)(F)F)c4)CC3)ccc21	1.2%
CC(=O)N1CCC(N(C(=O)Nc2ccc(C)c(F)c2)C(C)C)CC1	-2.8%
Cc1ccc(Nc2ccc3cc(S(=O)(=O)N4CCC(C)CC4)ccc3n2)c(Cl)c1	4.8%
O=C(Nc1ccccc1C(=O)OCc1cc(=O)n2ccsc2n1)c1cccc(F)c1	-0.9%

An excerpt of these results, in markdown.
| Structure | ClpP mod |
| --- | --- |
| COc1cccc(C(=O)N2CCC(C(=O)Nc3cccc(Cl)c3)CC2)c1 | 1.6% |
| COC(=O)C1CCN(C(c2ccccc2)c2sc3nc(-c4ccco4)nn3c2O)CC1 (stereo unspecified) | -1.9% |
| CCOC(=O)c1c(-c2ccccc2)csc1NC(=O)c1nc(S(=O)(=O)CC)ncc1Cl | -0.9% |
| CCOC(=O)c1cccc(NC(=O)Cn2nc3c(cc2=O)CCCC3)c1 | -1.9% |

(more compounds)
SMILES	ClpP mod
COc1cccc(CNC(=O)c2ccc3nc(N4CCCCC4)sc3c2)c1OC	?
CCS(=O)(=O)c1ncc(N(Cc2ccco2)Cc2sccc2C)c(C(=O)Nc2ccc(C)cc2C)n1	-0.4%
COc1cccc(NC(=O)Cn2c(=O)n(Cc3ccc(F)cc3)c(=O)c3sc4ccccc4c32)c1	?
CCOc1ccc(NC(=O)CN(c2ccccc2OCC)S(=O)(=O)c2ccccc2)cc1	0.7%
Cc1ccc(Cl)cc1N1CCN(S(=O)(=O)c2ccc3[nH]c4c(c3c2)CCCCC4)CC1	?
CCOC(=O)c1c(S(=O)(=O)N2CCC(C(=O)NCc3ccc(F)cc3)CC2)c(C)n(C)c1C	1.4%
O=C(Nc1cc(C(F)(F)F)ccc1Cl)c1cc(-c2cccs2)nc2ccccc12	-7.0%
COc1ccc(-c2[nH]nc3nc(-c4cc(Br)ccc4OC)cc(C(=O)O)c23)cc1	-5.1%
CCN(CC)C(=O)Cn1c(=O)cc(C)c2c(C)nn(-c3cccc(Cl)c3C)c21	-4.2%
COc1ccc(F)cc1S(=O)(=O)NCCc1sc2nc(-c3ccc(F)cc3)nn2c1C	1.6%
COc1cc2ccccc2cc1C(=O)Nc1ccc2oc(-c3cccc(C)c3)nc2c1	?
COc1ccc(C(=O)NCC(c2cccnc2)N2CCN(c3ccc(F)cc3)CC2)cc1 (stereo unspecified)	-1.6%
CCC(=O)N1c2nc(-c3ccco3)nn2C2(CCCCC2)[C@@H]2CCCC[C@@H]21	0.5%
O=C(Nc1cccc(O)c1)c1cc(-c2ccccc2F)no1	3.6%
Cc1cccc(C(=O)NCC(=O)OCc2cc(=O)n3nc(C4CCCCC4)sc3n2)c1	-3.4%
CCOc1ccccc1NC(=O)C1CCCN1S(=O)(=O)c1ccc2c(c1)C(C)(C)C(=O)N2C (stereo unspecified)	-2.7%
Cc1ccc2c(=O)cc(CSc3nnc(-c4ccccc4)n3C)[nH]c2c1C	0.0%
Cc1ccc(NC(=O)c2cnn3c(C(F)F)cc(-c4ccccc4)nc23)c(C)c1	2.9%
CC(C)C(NS(=O)(=O)c1ccc2c(c1)oc(=O)n2C)C(=O)NCc1ccccc1 (stereo unspecified)	0.0%
CCOc1ccc(C(=O)NCC(c2ccc3c(c2)OCO3)N2CCOCC2)cc1 (stereo unspecified)	-2.2%
COc1ccccc1C1N=C(Nc2nc3ccccc3o2)NC2=C1C(=O)CC(C)(C)C2 (stereo unspecified)	?
COc1cc(NC(=O)CN(C)S(=O)(=O)c2ccc3c(c2)CCCC(=O)N3)cc(OC)c1OC	-1.6%
Cc1cc(C)cc(NC(=O)c2ccc3c(c2)nnn3C2CCCC2)c1	?
COc1ccc(N(C(=O)c2ccc(C(C)(C)C)cc2)S(=O)(=O)c2ccc(Cl)cc2)cc1	0.0%
Cc1ccc(C(=O)c2cn(Cc3ccccc3C)c3nc(C)ccc3c2=O)cc1	-0.9%
COc1ccc(CNC(=O)c2cc3c(=O)oc4ccc(C)cc4c3s2)c(OC)c1	-8.0%
Cc1cc(C)nc(-n2nc(C)c3c2N(Cc2ccccc2)C(=O)CC3c2ccc(Cl)cc2)n1 (stereo unspecified)	-0.3%
CC(C)c1ccc(Nc2c(-c3ccsc3)nc3ccc(Cl)cn23)cc1	-4.5%
CCOC(=O)C1CCCN(C(=O)C2CCN(S(=O)(=O)c3c(C)noc3/C=C/c3ccc(C)cc3)CC2)C1 (stereo unspecified)	?
COc1ccc(-n2c(=O)c3sc4ccccc4c3n(C)c2=O)cc1	?
COc1cc(OC)cc(C(=O)Nc2ccc(S(=O)(=O)Nc3onc(C)c3C)cc2)c1	-0.5%
CSc1nc2sc3c(c2c(=O)n1-c1ccccc1)CCC(C(C)(C)C)C3 (stereo unspecified)	1.2%
O=C1OC(C(=O)Nc2cc(C(F)(F)F)ccc2Cl)Cc2ccccc21 (stereo unspecified)	-1.8%
CCOc1ccc(NC(=O)C2Cc3ccccc3N2C(=O)c2ccccc2)cc1 (stereo unspecified)	7.1%
O=C(CCS(=O)(=O)c1cc(Br)cc2c1N(C(=O)C1CC1)CC2)Nc1ccc(F)cc1	-0.7%
Cc1cccc(CSc2ccc3nnc(CCNS(=O)(=O)c4ccccc4)n3n2)c1	-3.0%
Cc1cccc(C)c1NC(=O)Cn1c(=O)n(Cc2ccc(C(=O)NCc3ccco3)cc2)c(=O)c2sccc21	5.0%
COc1cc(NS(=O)(=O)c2cc3c(cc2C)N(C)CCO3)cc(OC)c1OC	-2.0%
NS(=O)(=O)c1ccc(CCNC(=O)Cn2c(-c3cccs3)cc3ccccc32)cc1	35.5µM*
CCOc1ccc(Nc2nc(N)c(C(=O)c3ccccc3Cl)s2)cc1	-0.9%
Cc1ccc(CCNC(=O)CCn2nc(-c3ccc(C)cc3)ccc2=O)cc1	-4.4%
CCOc1ccc(NS(=O)(=O)c2ccc3[nH]c4c(c3c2)CCCCC4)cc1	-9.4%
Cc1ccc(S(=O)(=O)NCCc2sc3nc(-c4ccccc4)nn3c2C)cc1C	-0.5%
Cc1ccc(S(=O)(=O)c2nnn3c2nc(NCc2ccccc2Cl)c2sccc23)cc1	-22.9%
Cc1ccc(NC(=O)CCCn2c(=O)c3cccn3c3cccnc32)cc1C	-7.1%
Cc1cccc(C(=O)NCC(=O)OCc2cc(=O)n3nc(C4CC4)sc3n2)c1	-2.7%
CC(C)NC(=O)C1CCN(C(=O)N2CCOc3ccc(Cl)cc32)CC1	-3.0%
CCN(CC)CCNC(=O)c1ccc(-n2c(-c3ccccc3)cc3c2CCCC3)cc1	-4.4%

Next part; the last four above are carried over.
SMILES	ClpP mod
Cc1ccc(NC(=O)CCCn2c(=O)c3cccn3c3cccnc32)cc1C	-7.1%
Cc1cccc(C(=O)NCC(=O)OCc2cc(=O)n3nc(C4CC4)sc3n2)c1	-2.7%
CC(C)NC(=O)C1CCN(C(=O)N2CCOc3ccc(Cl)cc32)CC1	-3.0%
CCN(CC)CCNC(=O)c1ccc(-n2c(-c3ccccc3)cc3c2CCCC3)cc1	-4.4%
CC(C)OCCCNC(=O)c1ccc2c(c1)N(Cc1c(F)cccc1Cl)C(=O)c1ccccc1S2	-0.5%
COc1ccc(-c2nc(SCC(=O)Nc3ccc4c(c3)OCCO4)c(-c3ccc(C)cc3)[nH]2)cc1OC	?
CCn1nc(C)c(CCN(C)C(=O)Nc2cc(Cl)c(OC)cc2OC)c1C	1.1%
O=C(COCc1cc(-c2cccs2)on1)Nc1cccc(O)c1	2.3%
CCOc1ccc(N(CC)C(=O)c2cc3c(s2)-c2ccccc2OC3)cc1	-16.9%
Cc1cc(C)cc(NC(=O)CSc2oc(-c3ccco3)nc2S(=O)(=O)c2ccccc2)c1	-1.4%
Cc1oc2ncn(CC(C)C)c(=O)c2c1C(=O)NCCCN1CCC(C)CC1	-3.2%
O=C(NCCc1ccccc1)c1c2c(nc3ccccc13)C(=O)N(C1CCCCC1)C2	-15.9%
CCOC(=O)COc1ccc(-c2nnn(CC(=O)Nc3ccccc3)n2)cc1	-0.5%
CCOc1ccc(/C=C/c2nc(C#N)c(N3CCN(c4ccc(OC)cc4)CC3)o2)cc1	?
Cc1oc2c(c1C(=O)Nc1ccccc1Br)C1=NCCN1C=N2	-0.9%
CCOC(=O)c1cccc(NC(=O)CCS(=O)(=O)c2ccc3c(c2)CC(=O)N3C)c1	-1.0%

Two compounds picked at random from the list so far:
SMILES	ClpP mod
Cc1ccc(OCC(=O)Nc2ccc3nc(SCC(=O)N4CCCC4)sc3c2)cc1	0.3%
COc1ccc(C(=O)NCC(c2cccnc2)N2CCN(c3ccc(F)cc3)CC2)cc1 (stereo unspecified)	-1.6%

Further entries:
SMILES	ClpP mod
COc1ccc(-n2ccnc(NCCc3ccccc3)c2=O)cc1OC	-9.6%
COc1ccc(CNC(=O)CSc2nc3ccccc3nc2Cc2ccccc2OC)cc1	1.1%
CC1(c2ccc(Cl)cc2)CC(C)(C)N(C(=O)c2ccccc2)c2ccccc21 (stereo unspecified)	0.1%
CCOCCc1nn2c(=O)cc(COC(=O)CNC(=O)c3ccc(C(C)(C)C)cc3)nc2s1	-7.1%
COc1cc(NC(=O)Cn2c(SCc3ccc(F)cc3)nc3cccnc32)cc(OC)c1	?
Cc1cc2c(n1-c1ccc(C(=O)NCC(C)c3ccccc3)cc1)CCCC2 (stereo unspecified)	-20.8%
COc1ccc(N2CC(NC(=O)COc3ccccc3C)CC2=O)cc1OC (stereo unspecified)	-0.4%
N#C/C(=C\c1ccc(-c2cc(Cl)ccc2Cl)o1)C(=O)Nc1ccccc1C(=O)O	-2.7%
COc1ccccc1CNC(=O)C1CCCN(C(=O)c2cnn(-c3ccc(F)cc3)c2-n2cccc2)C1 (stereo unspecified)	1.6%
CCOC(=O)c1cnc2c(C)c(Cl)ccc2c1NCCc1ccccc1	4.3%
Cc1ccc(-c2c(C)n3c4c(=O)n(C)c(=O)n(C)c4nc3n2CCO)cc1	1.3%
CC(=O)c1ccc(N2CCN(c3ncnc4c3cnn4C)CC2)cc1	-12.4%
Cc1ccc(CNC(=O)CSC2=Nc3ccccc3N=C(c3ccc(F)cc3)C2)cc1	-0.9%
COC(=O)c1ccc(NC(=O)CCc2c(C)nc3c(c(C)nn3C(C)(C)C)c2C)cc1	-1.2%
CCC(C)NC(=O)CSc1nnc(-c2ccc(C)cc2)c(-c2ccc(C)cc2)n1 (stereo unspecified)	0.3%
COCCc1nn2c(=O)cc(COC(=O)C(c3ccccc3)c3ccccc3)nc2s1	-3.2%
Cc1cc(C)cc(N2C(=O)CS(=O)(=O)C23C(=O)N(C)c2ccccc23)c1 (stereo unspecified)	0.8%
COc1ccc(C2CC(=O)c3cc(-c4nc(-c5ccc(C)cc5)cs4)c(=O)[nH]c3C2)cc1 (stereo unspecified)	-5.1%
CCCCCCOc1ccc(C2C(=O)N(C3CCCCC3)CC(=O)N2CCCC)cc1 (stereo unspecified)	0.8%
COc1cc(C)ccc1OCCSc1nc2ccc(NC(=O)c3cccs3)cc2s1	?
COc1ccccc1NC(=O)Cn1c(=O)n(-c2cccc(Cl)c2)c(=O)c2c1c1cc(C)ccc1n2C	3.6%
COC(=O)c1ccc(NC(=O)CC2C(=O)N(c3ccc(C)cc3)C(=O)N2Cc2ccc(OC)cc2)cc1 (stereo unspecified)	-4.6%
CCOC(=O)N1CCN(Cc2nc3cc(NC(=O)c4ccccc4[N+](=O)[O-])ccc3n2C(C)C)CC1	-2.8%
COc1nnc(-c2ccc(N3CCCCC3)c(NC(=O)c3ccccc3)c2)c2ccccc12	-1.0%
O=[N+]([O-])c1cc(-c2nc(-c3ccccc3)no2)ccc1N1CCCC1	0.9%
COc1ccc(C(=O)c2c(N)c(C(=O)Nc3cccc(OC)c3)c3ccccn23)cc1	3.8%
COc1cc2c(NC3CCN(C)CC3)nc(N3CCCN(C)CC3)nc2cc1OCCCCCC(N)=O	4.1%
Cc1ccc(C)c(NC2=C(c3ccc(C(F)(F)F)cc3)C(=O)c3ccccc32)c1	-6.4%
CCOc1ccc2nc(N3CCC(C(=O)Nc4cc(C)ccc4C)CC3)sc2c1	1.6%
O=C(CSc1nc2c([nH]c3ccccc32)c(=O)n1-c1ccc(Cl)cc1)N1CCc2ccccc21	-14.6%
Cc1cccc(Oc2nc3c(C)cccn3c(=O)c2/C=C(\C#N)c2nc3ccccc3s2)c1	3.8%
CCCSc1ncc(Cl)c(C(=O)Nc2sc3c(c2C(=O)NCCOC)CCCC3)n1	-1.7%
CCCCCNC(=O)CCn1c(=O)[nH]c2ccccc2c1=O	?
O=C(Nc1ccc(F)cc1)c1cccn1-c1nnc(N2CCCCC2)s1	-0.9%

This is a subset. The share of hits here may be higher or lower than overall.
